Source: PubChem (several laboratories)
Ecoli growth – inhibitors of Escherichia coli growth | OD600, 23 h; active compounds read low | OD600 absorbance (no concentration beside the values) | hit rate 0.21% among 330,000;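 active = OD600 absorbance below the run mean of sample wells minus 3.6 SD, in any replicate, cut at about 0.56 in these data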;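 note: stock transfer was 300 nL into about 60 µL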
FGF22 binding – FGF22 (human) thermal shift binding; calls only at 9.99 µM; recombinant FGF22 thermal shift, SYPRO orange fluorescence; percent of sucrose octasulfate shift, DMSO zero; AID 651658; hit rate 1.5% among 340,000;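 active = melting point raised past a set limit in the mean and every replicate; three in four hits are not shown here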
Target sequence (Q9HCT0 whole entry, looked up): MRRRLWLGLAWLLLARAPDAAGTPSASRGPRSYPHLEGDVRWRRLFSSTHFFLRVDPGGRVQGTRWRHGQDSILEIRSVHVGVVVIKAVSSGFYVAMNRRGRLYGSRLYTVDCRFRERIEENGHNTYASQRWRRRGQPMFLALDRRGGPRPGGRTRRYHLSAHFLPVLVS
B2AR ag – activates human beta-2 adrenergic receptor causing internalization | P07550 | Am2.2-beta2AR cells, FAP receptor internalization, flow cytometry; reference of the scale not given here | response, % (concentration not given with the values) | hit rate 0.43% among 340,000 | AID 504454;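 active = response above a set limit, near 3 SD of response in nonfluorescent compounds, cut at about 42% in these data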;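 note: stock transfer was 100 nL into about 11 µL; a reference agonist was the positive control; negative values mostly stem from fluorescent compounds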
Target sequence (P07550 whole entry, looked up): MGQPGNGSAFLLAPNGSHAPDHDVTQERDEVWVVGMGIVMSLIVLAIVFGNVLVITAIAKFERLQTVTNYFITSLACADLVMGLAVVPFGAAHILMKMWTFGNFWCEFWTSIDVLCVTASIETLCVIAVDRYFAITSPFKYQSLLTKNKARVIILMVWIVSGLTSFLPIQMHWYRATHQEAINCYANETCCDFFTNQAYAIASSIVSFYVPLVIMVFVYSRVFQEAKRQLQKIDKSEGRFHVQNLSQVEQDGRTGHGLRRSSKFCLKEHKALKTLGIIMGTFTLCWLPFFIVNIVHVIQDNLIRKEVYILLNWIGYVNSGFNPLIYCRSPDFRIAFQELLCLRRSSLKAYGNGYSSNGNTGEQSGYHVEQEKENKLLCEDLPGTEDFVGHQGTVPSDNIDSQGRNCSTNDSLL
HNF4A DNA FP – change in binding of human HNF4 alpha to DNA | P41235 | HNF4a-FITC DNA binding, fluorescence polarization, 1 h | activity change, % at 10 µM | hit rate 0.3% among 360,000 | AID 1224865; in the data active = activity change above about 30%, passing the limit was not always enough;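 note: controls were the assay level and a saturating level of protein; the project sought stronger binding though the title names inhibitors; some compounds called inactive have numbers as strong as hits; positive values seem to mean higher polarization but the record does not say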
Target sequence (P41235 whole entry, looked up): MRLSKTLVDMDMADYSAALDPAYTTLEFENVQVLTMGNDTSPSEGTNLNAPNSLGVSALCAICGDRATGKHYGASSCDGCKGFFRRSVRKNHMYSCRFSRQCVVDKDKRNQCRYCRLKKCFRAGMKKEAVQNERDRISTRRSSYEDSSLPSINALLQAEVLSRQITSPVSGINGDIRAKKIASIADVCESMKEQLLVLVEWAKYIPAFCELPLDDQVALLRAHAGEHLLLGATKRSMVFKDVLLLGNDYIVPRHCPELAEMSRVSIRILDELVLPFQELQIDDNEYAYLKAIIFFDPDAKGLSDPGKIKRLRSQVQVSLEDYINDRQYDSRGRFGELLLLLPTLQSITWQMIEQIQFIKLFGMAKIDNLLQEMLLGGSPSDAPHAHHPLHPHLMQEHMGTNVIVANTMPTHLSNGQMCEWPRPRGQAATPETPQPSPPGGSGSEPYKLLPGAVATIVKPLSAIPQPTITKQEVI
LANA-H2A inh – blocks KSHV LANA binding to histone H2A/H2B; Q9QR71; cell-free LANA-H2A/H2B peptide, fluorescence polarization; inhibition, % (no concentration beside the values); hit rate 0.6% among 320,000; AID 2629; in the data active = inhibition mostly above about 10%, no sharp cut-off; inactive = mostly below about 6.7%;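 note: stock transfer was 7.5 nL into about 10 µL; 0% = median of vehicle wells and 100% = median of positive control wells; one replicate is shown; the record names a cut of 25% in any replicate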
UCH37 inh – inhibitors of human deubiquitinating enzyme UCH37 | Q9Y5K5 | purified proteasome/UCH37, Ub-AMC cleavage fluorescence | AID 588478 | inhibition, % (test concentration not listed) | hit rate 0.33% among 330,000;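 active = mean of two replicates above 20%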;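 note: 0% = compound-free wells with enzyme and 100% = wells lacking proteasome; stock transfer was 100 nL into about 20 µL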
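System: Proteasome-associated human UCH37 deubiquitinase; Input: 0.15 nM proteasome in added enzyme buffer; Also added: Ub-AMC substrate from 1 µM stock; Incubation: 30 min compound-proteasome preincubation then 25 min substrate reaction, room temperature; Detection: fluorescence, ex 355 nm, em 460 nm; Read-out: % inhibition of Ub-AMC cleavage fluorescence; Benchmarks: no-proteasome and no-compound wells.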
ALR H2O2 inh – inhibitors of human sulfhydryl oxidase ALR. P55789. AID 485317. inhibition, % (test concentration not listed). hit rate 3.8% among 290,000. purified ALR, DTT oxidation, H2O2 HRP-luminol luminescence;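 active = mean and each replicate at 75% or more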;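 note: stock transfer was 7.5 nL into about 7.5 µL; 0% = neutral wells and 100% = wells with inactivated enzyme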
The depositor's hits bear a star; i = inactive; . = no result given. Not all compounds are listed. The share of hits here may be higher or lower than overall.

SMILES	Ecoli growth	FGF22 binding	B2AR ag	HNF4A DNA FP	LANA-H2A inh	UCH37 inh	ALR H2O2 inh
CCOC(=O)NC(=O)CSc1nc(-c2ccc(C)c(C)c2)cn1-c1ccccc1	0.69	.	2	0.1	-1.0	-42	1
CCOC(=O)c1cc2occc2n1CC(=O)Nc1ccc(OC)cc1OC	0.71	.	-4	-0.9	3.0	2.9	1
O=C(Cc1ccc(-c2ccccc2)cc1)OCC(=O)N1CCCC1=O	0.71	i	5	-2.7	3.3	1.2	-6
Oc1ccccc1C=NN=C1c2ccccc2-c2ccccc21	.	i	-2	0.4	.	.	.
O=C(c1ccc(COc2ccc(F)cc2)o1)n1cc(Br)cn1	0.72	.	2	-4.3	-5.2	3.0	-10
O=C(CSc1ccc2nnc(CCNC(=O)c3ccc(F)cc3)n2n1)NCc1ccco1	0.69	i	-4	0.2	-5.4	0.9	-3
CC(C)Nc1nnc(SCC(=O)c2c[nH]c3ccccc23)s1	0.66	.	4	2.1	-0.2	4.4	-5
Cc1ccc(-c2nnc(NC(=O)c3ccco3)o2)c(C)c1	0.62	i	-3	4.9	.	2.1	.
Nn1c(COc2ccc(Cl)cc2)n[nH]c1=S	0.67	.	9	0.4	-0.7	1.7	.
CCc1nnc(NC(=O)c2cccc(S(=O)(=O)N3CCCC3)c2)s1	0.65	i	2	-1.1	-3.7	1.1	-6
O=C(CCN1C(=O)/C(=C\c2ccccc2)SC1=S)N1CCCCC1	0.66	i	-12	-0.3	0.9	11	-7
CC(C)[C@H](NC(=O)OCc1ccccc1)C(=O)OCC(=O)N1CCCCC1	0.69	i	3	2.1	.	1.1	.
COc1cc(NC(=O)c2cccc([N+](=O)[O-])c2)ccc1NC(=O)c1cc2ccccc2o1	.	i	-12	-1.1	-1.8	.	-5
O=C(Nc1ccc(N2CCN(c3ccccc3)CC2)c(F)c1)C1CC1	0.7	i	3	2.9	-4.1	7.1	-2
CC(=O)Nc1ccc(N2C(C(C)=O)=NN(c3ccc(Cl)cc3)C2c2sccc2C)cc1 (stereo unspecified)	0.74	.	-2	3.7	-5.0	-4.7	-5
Cc1ccc(-c2nc(SCC(=O)N(C)c3c(N)n(Cc4ccccc4)c(=O)[nH]c3=O)n[nH]2)cc1	0.73	i	-2	-2.1	1.3	3.0	2
CC1(C)C(N(O)C(=O)Nc2ccc(Cl)cc2)N(c2ccc(Cl)cc2)C(=O)N1CC(=O)NN (stereo unspecified)	0.66	i	-7	-1.3	-0.2	4.6	-3
CC(C)(C)[C@@H]1CCC(=O)N(CC[C@H](Sc2ccc(Br)cc2)c2ccccc2)CC1	.	i	5	0.5	4.2	.	-9
CCCCN(C(=O)c1ccccc1OCc1ccc(F)cc1)c1c(N)n(CCC)c(=O)[nH]c1=O	0.69	i	-10	-0.2	-1.4	1.5	-1
Cc1ccc(-c2ccc(=O)n(CC(=O)NCc3ccc(F)cc3)n2)cc1	0.73	i	-14	-0.1	-1.5	-5.0	2
CC[C@@H](C)[C@@H]1CN([C@@H](C)CN2CCC[C@H]2CN2C(N)=NC[C@H]2CC(C)C)C(=N)N1CCc1ccc(Cl)c(Cl)c1	.	i	5	-1.1	1.0	0.7	2
CCn1cc(C(=O)C(F)(F)F)c2ccccc21	0.68	.	0	-0.9	1.2	2.0	2
Nc1nonc1-n1nnc(C(=O)N/N=C/c2cccc(F)c2)c1-c1ccc2c(c1)OCO2	.	i	-6	4.6	1.9	.	-7
O=C(OCC1CCCN2CCCCC12)c1ccc2c(c1)OCO2 (stereo unspecified)	0.68	.	1	-1.7	-0.1	1.3	10
CC(C)C(=O)Nc1cccc(S(=O)(=O)c2cccc(NC(=O)C(C)C)c2)c1	0.72	.	1	0.8	-4.8	-1.7	-2
SMILES	Ecoli growth	FGF22 binding	B2AR ag	HNF4A DNA FP	LANA-H2A inh	UCH37 inh	ALR H2O2 inh
OC(CN1CCCCC1)Cn1c2ccc(Cl)cc2c2cc(Cl)ccc21 (stereo unspecified)	0.61	i	30	3.0	-2.1	1.1	-11
COc1ccc(NC(=O)CSc2[nH]c(=O)cc(C)c2C#N)cc1OC	0.66	i	2	0.5	-0.2	3.3	.
CN(CC(=O)NCCc1ccc(F)cc1)Cc1ccccc1	0.66	i	1	-0.8	1.4	3.9	-5
COc1ccccc1CNCC(=O)NCc1ccc(C)cc1	0.66	i	-5	-2.3	0.4	3.3	-2
COCCN(CC(=O)Nc1cccc(C)c1C)C(=O)Cc1sc(C)nc1-c1ccc(F)cc1	0.69	i	13	4.5	.	1.6	.
COc1cc(C2c3cc4c(cc3C(O)C3COCC23)OCO4)cc(OC)c1OC (stereo unspecified)	0.65	i	4	-0.1	.	-1.3	.
CC(Sc1cccc[n+]1[O-])C(=O)Nc1cccc([N+](=O)[O-])c1 (stereo unspecified)	0.69	i	3	-2.8	4.5	5.2	-11
CCOC(=O)c1ccc(NC(=O)CSc2nnc(C)n2-c2ccccc2)cc1	0.75	.	2	1.2	-3.8	4.5	-7
CN(NC1OC(=O)c2ccccc21)c1ccc(Cl)cc1[N+](=O)[O-] (stereo unspecified)	0.65	i	-6	2.2	-0.5	10	2
O=[N+]([O-])c1ccc(-n2nncc2-c2ccc(Cl)cc2)cc1	0.68	i	-21	2.7	-4.0	0.8	-3
Cc1nn(Cc2ccccc2Cl)c2sc(C(=O)Nc3ccccc3N3CCOCC3)cc12	0.69	i	3	-0.7	-8.4	-5.9	3
CS(=O)(=O)N(CC(=O)N/N=C/c1cccc2c1OCCO2)c1ccccc1Br	.	.	-5	-2.0	-13	.	-2
CC(C)(C)n1nc2c(c1NC(=O)Cc1ccc(F)cc1)CS(=O)(=O)C2	0.69	i	8	3.2	-3.5	1.7	3
Cc1cc(C(=O)Nc2ncc(C)s2)c2ccccc2n1	0.71	i	-15	1.0	0.0	5.0	-10
Cc1ccc(Nc2ncc3c(n2)CC(c2ccco2)CC3=O)c(C)c1 (stereo unspecified)	0.75	.	4	0.1	-0.1	-1.6	-2
Cc1ccc(C(=O)N2CCN(c3ccc([N+](=O)[O-])cc3-n3cccc3)CC2)cc1	0.71	i	11	2.4	5.0	1.5	-3
CN(C[C@H](c1ccccc1)N(C[C@H](Cc1ccccc1)N(CCc1ccccc1)N=O)N=O)N=O	.	i	-1	-1.2	-2.5	37*	.
Cc1cc(Cl)c2oc(C(=O)N3CCN(c4cccc(C)n4)CC3)c(C)c2c1	0.68	i	-2	-2.4	8.1	2.5	.
Cc1cc(C)n(S(=O)(=O)Cc2ccccc2)n1	0.74	i	2	2.5	-1.1	-0.2	-14
O=S(=O)(NCC1CCCN(Cc2ccccc2)C1)c1cccc2cccnc12 (stereo unspecified)	0.68	i	8	7.1	-0.7	4.6	-2
C[C@H]1COC(=O)CCCC/C=C\C[C@H](CC(=O)N(CCO)Cc2ccccc2)C(=O)N1	.	i	-2	-4.0	4.7	0.3	-8
CCCCCNCc1ccc(Br)cc1	0.63	i	2	2.1	-0.5	0.6	-3
O=C(c1ccc(S(=O)(=O)N2CCCCCC2)cc1)N1CCC(CN2C(=O)c3cccc4cccc(c34)C2=O)CC1	0.79	.	9	3.5	-4.9	-3.5	-9
COc1ccc(NC(=O)c2ccccc2F)cc1Cl	0.68	.	0	-0.4	2.7	3.7	-21
Cc1ccc(S(=O)(=O)N2C[C@@H]3CCCC[C@@H]3[C@@H](C)[C@H]2c2cn(Cc3ccccc3)c3ncccc23)cc1	0.73	i	-10	0.3	.	-1.0	.

By substructure: those above containing two or more sulfur atoms.
SMILES	Ecoli growth	FGF22 binding	B2AR ag	HNF4A DNA FP	LANA-H2A inh	UCH37 inh	ALR H2O2 inh
CC(C)Nc1nnc(SCC(=O)c2c[nH]c3ccccc23)s1	0.66	.	4	2.1	-0.2	4.4	-5
CCc1nnc(NC(=O)c2cccc(S(=O)(=O)N3CCCC3)c2)s1	0.65	i	2	-1.1	-3.7	1.1	-6
O=C(CCN1C(=O)/C(=C\c2ccccc2)SC1=S)N1CCCCC1	0.66	i	-12	-0.3	0.9	11	-7

Next records follow:
SMILES	Ecoli growth	FGF22 binding	B2AR ag	HNF4A DNA FP	LANA-H2A inh	UCH37 inh	ALR H2O2 inh
Cc1cc(C(=O)OCC(=O)Nc2cccc(S(=O)(=O)N3CCOCC3)c2)c(C)o1	0.72	.	4	2.5	4.8	5.6	-7
S=C(NCc1ccccc1)NCc1ccc(CNC(=S)NCc2ccccc2)cc1	0.69	.	1	-1.9	7.4	4.0	-4
COC1OC(COCc2ccccc2)C(N)C(OCc2ccccc2)C1OCc1ccccc1 (stereo unspecified)	0.66	i	-7	-3.8	.	3.6	.
COc1cc(NC(=O)C2C3C=CC(C3)C2C(=O)O)c(OC)cc1Cl (stereo unspecified)	0.69	i	-1	0.7	1.3	1.8	5
O=C(Cc1csc(Nc2nc(=S)[nH]c3ccccc23)n1)NCCCN1CCN(c2cccc(Cl)c2)CC1	0.73	i	0	7.0	-1.9	-40	.
Cc1cc(C)c(C#N)c(SCCS(=O)(=O)c2ccc(Cl)cc2)n1	0.73	i	4	3.7	-1.1	4.0	.
CCOC(=O)N1CCC(N(C(=O)Nc2cccc(OC)c2)C(C)CC)CC1 (stereo unspecified)	0.66	.	1	7.6	5.6	1.1	-3
CCCn1c(=S)[nH]c2ccccc2c1=O	0.69	i	-7	3.2	1.7	0.3	23
CCOc1ccccc1NC1=C(Cl)C(=O)N(c2ccccc2)C1=O	0.68	.	12	2.2	2.2	4.0	0
Cc1nc2ccccc2c(=O)n1NC(=O)c1cccc([N+](=O)[O-])c1	0.67	i	-3	1.8	0.2	-0.4	9
CCOC(=O)N1CCN(S(=O)(=O)c2cc(C)c(C)cc2C)CC1	0.71	.	-2	1.9	3.0	1.5	-31
Cc1ccccc1-n1c(=O)c2c(n3cnnc13)-c1ccccc1CC21CCCCC1	0.77	.	-8	-4.4	2.9	2.4	-8
O=C(COC(=O)c1ccc([N+](=O)[O-])o1)NCc1ccccc1	0.63	i	4	1.1	7.2	9.1	-27
CO/N=C/CC(=O)c1cnc(-c2ccc(Cl)cc2)s1	.	i	-2	8.6	-1.0	.	2
O=C(O)Cc1ccc(S(=O)(=O)Nc2ccccc2C(=O)O)cc1	0.68	i	-2	-0.2	-0.1	2.4	.
CCN(CC)CCNC(=O)CCN1N=C(c2ccccc2)CCC1=O	0.72	i	-5	12	-4.4	1.8	-3
COc1ccc(-c2csc(NC(=O)Cc3ccccc3F)n2)c(OC)c1	0.7	i	13	1.9	-11	0.6	-2
Cc1ccc(S(=O)(=O)N2CCN(C(=O)c3cc(S(=O)(=O)N(C)C)ccc3N3CCCC3)CC2)c(C)c1	0.63	i	8	-2.8	.	6.2	.
CN(Cc1ccccc1)C(=O)c1ccc([N+](=O)[O-])o1	0.61	i	7	1.8	11	4.1	-24
O=C(/C=C/c1cccc([N+](=O)[O-])c1)NC(=S)Nc1ccc(CN2CCOCC2)cc1	0.71	i	1	0.1	-1.7	4.6	-13
CCS(=O)(=O)N1Cc2ccccc2CC1C(=O)N(C)CC(=O)Nc1cccc(F)c1 (stereo unspecified)	0.68	i	-3	3.0	-4.7	2.5	2

Single records, from the list above. Values in the order: Ecoli growth | FGF22 binding | B2AR ag | HNF4A DNA FP | LANA-H2A inh | UCH37 inh | ALR H2O2 inh
CCOC(=O)N1CCN(S(=O)(=O)c2cc(C)c(C)cc2C)CC1 in the list: 0.71 | . | -2 | 1.9 | 3.0 | 1.5 | -31
S=C(NCc1ccccc1)NCc1ccc(CNC(=S)NCc2ccccc2)cc1 in the list: 0.69 | . | 1 | -1.9 | 7.4 | 4.0 | -4
CCOc1ccccc1NC1=C(Cl)C(=O)N(c2ccccc2)C1=O in the list: 0.68 | . | 12 | 2.2 | 2.2 | 4.0 | 0

Three compounds from above, limited to B2AR ag and UCH37 inh.
mol,B2AR ag,UCH37 inh
Cc1ccccc1-n1c(=O)c2c(n3cnnc13)-c1ccccc1CC21CCCCC1,-8,2.4
O=C(COC(=O)c1ccc([N+](=O)[O-])o1)NCc1ccccc1,4,9.1
CO/N=C/CC(=O)c1cnc(-c2ccc(Cl)cc2)s1,-2,.
